High-throughput results as filed in PubChem.
VDR inhibitor = vitamin D3 receptor (human) inhibition; Potency, µM, for the others: max response, negative = inhibition, usual class: inhibitors; P11473; AID 504847; VDR-SRC2-3 peptide fluorescence polarization, 2 h; actives 0.93% (n = 400,000); active = well fitted inhibition curve with a large enough effect; inconclusive = small, poorly fitted or top-dose-only effect, or another doubt; inactive = no such curve, though single readings can be large or run the other way; note: series mostly up to about 120 µM
Target sequence (P11473 whole entry, looked up): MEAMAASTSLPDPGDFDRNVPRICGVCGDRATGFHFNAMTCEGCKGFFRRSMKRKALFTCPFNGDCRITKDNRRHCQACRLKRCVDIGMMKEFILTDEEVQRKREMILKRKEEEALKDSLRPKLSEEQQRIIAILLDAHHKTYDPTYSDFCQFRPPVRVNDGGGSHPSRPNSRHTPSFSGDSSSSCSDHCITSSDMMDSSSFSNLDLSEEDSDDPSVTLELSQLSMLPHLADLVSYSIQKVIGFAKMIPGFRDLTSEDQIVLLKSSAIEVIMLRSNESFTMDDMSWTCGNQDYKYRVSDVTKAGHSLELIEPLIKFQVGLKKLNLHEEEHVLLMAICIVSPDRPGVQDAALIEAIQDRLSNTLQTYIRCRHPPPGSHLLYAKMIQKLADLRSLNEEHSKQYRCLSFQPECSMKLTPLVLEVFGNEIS
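Reagent solutions, kept cold and dark, are dispensed first; compounds are then pinned in at 23 nl, plates briefly spun, and incubated 2 h at ambient temperature. Inhibition of VDR–SRC2-3 peptide binding is read by fluorescence polarization.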
* hit, by the source's call; ? = inconclusive; ! = repeats disagree. % is set by controls: 0 for no effect and ±100 for the full control effect; potency is the fitted concentration of half-maximal effect. Some of the compounds tested (hit frequency here may not be typical).

SMILES	VDR inhibitor
CC1=C(C(=O)OC(C)C)[C@@H](c2ccc(C)o2)NC(=O)N1	-16%
O=C1CC(NC23CC4CC(CC(C4)C2)C3)C(=O)N1c1ccc2c(c1)OCO2 (centres undefined)	11%
CCCCNc1nc(CC)c2c(c1C#N)CCCC2	-5%
N=c1ccccn1CC(O)COc1ccccc1 (centres undefined)	15%
C[C@H](CO)N1C[C@H](C)[C@@H](CN(C)S(C)(=O)=O)Oc2c(NC(=O)C3CC3)cccc2C1=O	-10%
O=C(NCCc1c[nH]c2ccccc12)OCCSS(=O)(=O)O	-20%
O=C1Nc2cc(C(=O)NCC3CCCO3)ccc2S/C1=C/c1ccccc1F (centres undefined)	10%
COc1ccc(/C=C2/N=C3CCCCCN3C2=O)cc1	6%
CCOCCN1CCN(c2c(C)c(C)nc3cc(-c4cc(OC)cc(OC)c4)nn23)CC1	-4%
Cc1cccc(N(Cc2cc3ccc(C)cc3[nH]c2=O)S(=O)(=O)c2ccccc2)c1	0%
O=C1c2cccc3cccc(c23)C(=O)N1Nc1ccccc1	3%
Clc1cccc(-c2nc(-c3ccc(-c4nn[nH]n4)cc3)no2)c1	-15%
O=C(CSCc1cnn(-c2ccccc2)c1-n1cccc1)NCc1ccccc1Br	3%
COc1ccc(/C=C/C(=O)c2ccc(O)cc2)cc1COc1ccc(F)cc1	13%
CCCNC(=O)c1ccc(N2CCC3(CC2)CC(c2cccc(Br)c2)=NO3)c(NC(=O)c2cccc(C)c2)c1	-15%
O=C(Nc1ccc2c(c1)OCO2)c1cc(Cl)ccn1	-8%
NC(=S)Nc1cccc(Cl)c1	-8%
Cc1oc(-c2ccccc2F)nc1CS(=O)(=O)CC(=O)NCCCN1CCc2ccccc2C1	2%
O=C(Nc1ccc(Br)cc1)c1cccc(S(=O)(=O)N2CCc3ccccc32)c1	8%
O=C1c2ccccc2C(=O)N1CCc1nc2ccccc2c(=O)n1CCCn1ccnc1	16%
COc1ccccc1-c1cc(C(F)(F)F)nc(N2CCCCC2)n1	-10%
CN(C)CCCN(C(=O)c1ccc(S(=O)(=O)N2CCCCCC2)cc1)c1nc2c(F)cc(F)cc2s1	-12%
Cc1nc2ccc(NC(=O)C(F)(F)F)cc2o1	0%
O=c1cc(NCc2ccccc2)c2ccccc2o1	-6%
CC(C)(C)c1cc(-c2nc(N)nc(N)n2)cc(C(C)(C)C)c1	3%
CCN(CC)CCCC(C)Nc1cc(/C=C/c2ccccc2Cl)nc2cc(Cl)ccc12 (centres undefined)	2%
O=C(CNS(=O)(=O)c1ccc(Br)s1)N1CCC(N2CCCCC2)CC1	6%
CCN(CC)CCNC(=O)CCn1c(=O)c2cccn2c2cccnc21	-3%
COc1ccc(/C(O)=C2/C(=O)C(=O)N(Cc3ccco3)C2c2cccs2)cc1 (centres undefined)	1%
CCOc1ccc(S(=O)(=O)N2CCN=C2c2ccccc2)c(C)c1C	-7%
N#CCCCS(=O)(=O)c1nnnn1-c1ccc(F)cc1Br	45µM*
COc1ccc(-c2cc3c(=O)n(CC(=O)NCCCN4CCC(N5CCCCC5)CC4)nc(C)n3n2)cc1	-9%
O=S(=O)(c1ccccc1)N1CCN(C(=S)NCCc2ccccc2)CC1	4%
Cc1ccc(-n2ccnc(NCc3cccs3)c2=O)cc1C	-2%
CCCCNC(=O)CSc1nc2cc3c(cc2c(=O)n1CCCC(=O)NCc1ccc(OC)cc1)OCO3	4%
O=C(CC1Nc2ccccc2NC1=O)Nc1ccc2c(c1)OCO2 (centres undefined)	-18%
Cc1cc(NC(=O)CN2C(=O)NC(C)(c3ccc(Cl)cc3)C2=O)no1 (centres undefined)	-9%
CC(=O)N1CCc2cc(Br)cc(S(=O)(=O)CCC(=O)N3CCN(c4cccc(C)c4C)CC3)c21	-7%
CCCCCn1c(=O)[nH]c2cc(C(=O)N3CCN(c4cc(Cl)ccc4C)CC3)ccc2c1=O	4%
O=C(CSc1nc(Cc2ccccc2)nc2ccccc12)Nc1ccc2c(c1)OCCO2	24%
NC(=O)c1c(NC(=O)Cc2ccccc2)sc2c1CCN(Cc1ccccc1)C2	-14%
CN(Cc1ccccc1)C(=O)c1ccccc1NC(=O)C1=CSCCO1	0%
COc1ccc(Cc2nc3ccc(C(=O)N(C)CCc4cnn(C)c4)cc3o2)cc1OC	0%
CCC(C)[C@H]1COCCS(=O)(=O)N1Cc1ccccc1 (some centres undefined)	17%
Cc1c(O)ccc(/C(Cc2ccc3ccccc3n2)=N\O)c1O	-10%
COc1cc(NC(=O)CCCl)cc(-n2cnnn2)c1	-4%
COc1cccc(C(C(=O)NC2CCCCC2)N(C(=O)CNC(=O)c2ccco2)c2cccnc2)c1 (centres undefined)	-17%
CN(CCCNC(=O)C1CCC(=O)N1Cc1ccccc1Cl)c1ccccc1 (centres undefined)	14%
Cc1ccccc1NC(=O)CSc1nc(=O)n(CCN2CCOCC2)c2c1CCC2	10%
COc1ccccc1NC(=O)COC(=O)/C=C/c1ccccc1[N+](=O)[O-]	-4%
Cc1ccc(S(=O)(=O)N2CCN(C(=O)c3cccs3)CC2)c(C)c1	-9%
CCOC(=O)c1sc(NC(=O)c2cccnc2)nc1C	-6%
N#Cc1c(SCc2cccc(Cl)c2)sc(C(=O)c2ccccc2)c1N	-4%
COC(=O)c1ccccc1NC(=O)COC(=O)/C=C/c1cccs1	0%
CCOc1ccc(C(F)(F)F)cc1NC(C)=O	17%
CC(Oc1ccccc1)C(=O)NN1Cc2ccccc2C1=N (centres undefined)	1%
CC(C)CNS(=O)(=O)c1ccc(OCC(=O)NCc2ccco2)cc1	0%
CCOC(=O)/C(C#N)=C1/C=CNC(=O)N1	6%
Cn1cccc1Cc1nnc(SCC(=O)Nc2nccs2)n1C	4%
CC1(c2cccc(Br)c2)NC(=O)N(CC(=O)c2ccc3c(c2)OCCO3)C1=O (centres undefined)	-24%
The list continues:
SMILES	VDR inhibitor
CN=C(Nc1cc(C)nn1CCC#N)c1ccc(F)cc1	-13%
CCN(C(=O)COC(=O)c1ccc2[nH]c(C)c(C)c2c1)c1c(N)n(Cc2ccccc2)c(=O)[nH]c1=O	-8%
CN(C)C(CNS(=O)(=O)c1cc([N+](=O)[O-])ccc1Cl)c1ccco1 (centres undefined)	-2%
CN(C)C(=C(C#N)C#N)N1CCN(c2ccc(Cl)cc2)CC1	-7%
CC(=O)N1CCN(c2ccc(NC(=O)c3ccccc3C)cc2)CC1	3%
CCCn1c(=O)c(C(=O)NCc2ccccc2)c(O)c2ccccc21	?
CC(=O)c1ccc(N2CCN(S(=O)(=O)c3cc4c(cc3C)NC(=O)CO4)CC2)cc1	-21%
CCc1ccc(NC(=O)c2c(Cl)nc(C)c(Cl)c2C)cc1	-25%
O=C(CN1CCCN(Cc2cccc(F)c2)S1(=O)=O)Nc1ccc2c(c1)OCCO2	11%
COc1cccc(C(=O)N2CCN(Cc3ccccn3)CC2)c1OC	11%
COc1ccc(C(=O)NCc2nnc(SCCOc3ccccc3)n2C)cc1	?
CCOc1cc(-c2noc(CCC(=O)NC3CCCCC3)n2)ccc1OC	-6%
O=C(Nc1cccnc1)c1ccc(Br)s1	-2%
Cc1ccc(C(=O)OCC(=O)Nc2ccc(N3CCOCC3)cc2)cc1	-15%
C=C1C(=O)O[C@@H]2[C@H]3O[C@]3(C)CC/C=C(\C)CC[C@@H]12	22µM*!
O=C(Nc1ccc(NC(=O)c2cccs2)cc1)c1ccccc1	10%
CC1CCCC(C)N1CCOc1cc(N)ccc1C#N (centres undefined)	-9%
COc1ccc(CCNC(=O)CSC2=Nc3ccccc3C3=NC(C(C)C)C(=O)N23)cc1OC (centres undefined)	-20%
Cc1[nH]c2ccccc2c1C(=O)C(=O)N1CCN(C)CC1	-13%
CC(=O)N1N=C(c2cccc(NS(C)(=O)=O)c2)CC1c1ccc2c(c1)OCO2 (centres undefined)	-6%
CCOc1cc(CNCCc2ccc(S(N)(=O)=O)cc2)ccc1OCc1ccccc1	-4%
Cc1ccc(C)n1-c1nn(S(=O)(=O)c2cccc(C(F)(F)F)c2)c2cccc(F)c12	1%
CCOC(=O)N1CCN(C(=O)CN(Cc2ccccc2)S(=O)(=O)c2ccc(OC)c(Cl)c2)CC1	7%
CC(=O)c1ccc(NC(=O)CSc2nc(C3CCCC3)nc3c2c(=O)n(C)c(=O)n3C)cc1	14%
C[n+]1c(-c2ccccc2)cc2c(=Cc3ccccc3)c3ccccc3n21	?
CC(OC(=O)/C(C#N)=C/c1ccco1)C(=O)N(C)c1ccccc1 (centres undefined)	0%
CCCCCOC(=O)CSc1ncnc2sc3c(c12)CCC(C)C3 (centres undefined)	-11%
CCN(CC)S(=O)(=O)c1ccc(C(=O)NCc2cccs2)cc1	4%
Nc1ncnc2c1ncn2[C@@H]1O[C@H](CNCc2ccc(OCC(=O)Nc3ccccn3)cc2)[C@@H](O)[C@H]1O	8%
O=C(Nc1ccc(F)cc1)C1CCN(C(=O)c2ccc([N+](=O)[O-])cc2)CC1	2%
O=C(c1cnn2c(C(F)F)cc(-c3ccccc3)nc12)N1CCc2ccccc21	4%
COc1ccc(NS(=O)(=O)c2ccc3c(c2)NC(=O)C(C)S3)cc1 (centres undefined)	2%
CCC(C)(NC(=O)c1ccc(=O)[nH]c1)C(=O)NC1CCCC1 (centres undefined)	-3%
CC1Cc2ccccc2N1C(=O)CSc1nc2cc3c(cc2cc1C#N)OCO3 (centres undefined)	1%
OCC[C@H]1C[C@@H](O)[C@H](O)[C@@]2(Cc3ccccc3O2)O1	-9%
Cc1nn(-c2ccc(N3CCCCC3)nn2)c(C)c1CCC(=O)NCc1ccc(OC(C)C)cc1	5%
CC1CC(=O)N(c2ccc(NCc3ccccc3Cl)c([N+](=O)[O-])c2)C1=O (centres undefined)	-2%
Cc1ccc2nc(-c3ccc(NC(=O)CCS(=O)(=O)c4ccccc4)cc3)sc2c1	1%
CCOC(=O)c1[nH]c(C)c(C(=O)N2CCOCC2)c1C	-2%
Cc1ccc2[nH]c(=O)c(CN(CCO)Cc3nnnn3Cc3ccco3)cc2c1	-14%

Reformatted in CSV form: 19 of the compounds above.
mol,VDR inhibitor
O=C(Nc1ccc(NC(=O)c2cccs2)cc1)c1ccccc1,10%
CC1CCCC(C)N1CCOc1cc(N)ccc1C#N (centres undefined),-9%
COc1ccc(CCNC(=O)CSC2=Nc3ccccc3C3=NC(C(C)C)C(=O)N23)cc1OC (centres undefined),-20%
Cc1[nH]c2ccccc2c1C(=O)C(=O)N1CCN(C)CC1,-13%
CC(=O)N1N=C(c2cccc(NS(C)(=O)=O)c2)CC1c1ccc2c(c1)OCO2 (centres undefined),-6%
CCOc1cc(CNCCc2ccc(S(N)(=O)=O)cc2)ccc1OCc1ccccc1,-4%
Cc1ccc(C)n1-c1nn(S(=O)(=O)c2cccc(C(F)(F)F)c2)c2cccc(F)c12,1%
CCOC(=O)N1CCN(C(=O)CN(Cc2ccccc2)S(=O)(=O)c2ccc(OC)c(Cl)c2)CC1,7%
CC(=O)c1ccc(NC(=O)CSc2nc(C3CCCC3)nc3c2c(=O)n(C)c(=O)n3C)cc1,14%
C[n+]1c(-c2ccccc2)cc2c(=Cc3ccccc3)c3ccccc3n21,?
CC(OC(=O)/C(C#N)=C/c1ccco1)C(=O)N(C)c1ccccc1 (centres undefined),0%
CCCCCOC(=O)CSc1ncnc2sc3c(c12)CCC(C)C3 (centres undefined),-11%
CCN(CC)S(=O)(=O)c1ccc(C(=O)NCc2cccs2)cc1,4%
Nc1ncnc2c1ncn2[C@@H]1O[C@H](CNCc2ccc(OCC(=O)Nc3ccccn3)cc2)[C@@H](O)[C@H]1O,8%
O=C(Nc1ccc(F)cc1)C1CCN(C(=O)c2ccc([N+](=O)[O-])cc2)CC1,2%
O=C(c1cnn2c(C(F)F)cc(-c3ccccc3)nc12)N1CCc2ccccc21,4%
COc1ccc(NS(=O)(=O)c2ccc3c(c2)NC(=O)C(C)S3)cc1 (centres undefined),2%
CCC(C)(NC(=O)c1ccc(=O)[nH]c1)C(=O)NC1CCCC1 (centres undefined),-3%
CC1Cc2ccccc2N1C(=O)CSc1nc2cc3c(cc2cc1C#N)OCO3 (centres undefined),1%

(next part)
SMILES	VDR inhibitor
O=C1CC2(CCN(C(=O)c3ccc([N+](=O)[O-])cc3)CC2)Oc2ccccc21	-6%
CCN(C(=O)COC(=O)CCOc1ccc(C(C)(C)C)cc1)c1c(N)n(Cc2ccccc2)c(=O)[nH]c1=O	1%
COc1ccc(Cc2nnc(NC(=O)C3CCCO3)s2)cc1 (centres undefined)	-13%
Cc1cccc(OCC(O)Cn2c(=N)n(CCN3CCOCC3)c3ccccc32)c1 (centres undefined)	7%
O=C(Cn1[nH]c(=O)c2ccccc2c1=O)OCC(=O)c1ccc(F)c(F)c1	2%
O=C(COC(=O)c1n[nH]c2ccccc12)NCCc1ccc(Cl)cc1	7%
COc1cccc(CNC(=O)C2CCCN(S(=O)(=O)c3ccc4c(c3)C(C)(C)C(=O)N4C)C2)c1 (centres undefined)	-5%
O=C(CNC(=O)c1ccccc1)N=Nc1c(O)[nH]c2ccc(Br)cc12	13%
CCN(CC)C(=O)c1nc[nH]c1C(=O)O[C@@H](C)c1ccccc1	-16%
CCOc1ccc(C(=O)Nc2ccc(NC(=O)c3ccco3)c(Cl)c2)cc1Br	4%
CSc1ncc(C(=O)Nc2ccc(F)cc2F)c(-c2ccccc2)n1	5%
CCN(Cc1nc(-c2ccc(OC)cc2)no1)C(=O)c1ccoc1C	28%
COc1ccc(CCNC(=O)C2CCN(C(=O)c3ccc(C(C)(C)C)cc3)CC2)cc1	6%
Cc1ccc(S(=O)(=O)N(CC(=O)O)Cc2ccccc2F)cc1	13%
O=P(c1ccccc1)(c1ccccc1)C(O)c1ccccn1 (centres undefined)	-17%
O=C(Nc1ccc(N2CCN(C(=O)c3ccco3)CC2)cc1)c1ccc([N+](=O)[O-])cc1Cl	12%
CC(=O)Nc1ccc(NC(=O)CN(c2ccc(C34CC5CC(CC(C5)C3)C4)cc2)S(C)(=O)=O)cc1	-4%
Nc1nc(NCc2ccco2)nc(Nc2cccc(F)c2)c1[N+](=O)[O-]	6%
CCOC(=O)C1(Cc2cccc(OC)c2)CCCN(C(=O)c2cc(CC(C)C)[nH]n2)C1 (centres undefined)	-10%
